High-throughput results (PubChem BioAssay)
Tgondii IFNg: T. gondii growth inhibition with IFN-gamma, primary screen, cell-based. activity change, negative = inhibition, %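 (about 20 µM by stock and volumes)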. Toxoplasma gondii growth in IFN-gamma-treated host cells; active compounds read low; reference of the scale not given here. AID 1259416, 2018. actives 3.8% (n = 69,000);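 active = below -70%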;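 note: host cells are HeLa cells infected with Toxoplasma gondii; parasite growth read as luciferase light; one replicate is shown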
* = called active by the depositor; & = joins results of further samples.

What do the screens show for `CO[C@H]1CC[C@@H]2CCOc3c(C#N)cccc3C(=O)N(C)C[C@H](OC)[C@@H](C)C(=O)N(C)C[C@@H]1O2`?
Tgondii IFNg: -10.0

How did O=C(NC1CCc2[nH]c(=O)ccc2C1)c1ccc2c(c1)OCO2 (stereo unspecified) do in these assays?
Tgondii IFNg: -4.1

How did CC(=O)N1Cc2nccn2CC(CN(C)Cc2ccco2)C1 (stereo unspecified) do in these assays?
Tgondii IFNg: 13.1

What do the screens show for `CC(C)NC(=O)N1CCC2(CC1)CC(CC(=O)NCC1CC1)c1ccccc12` (stereo unspecified)?
Tgondii IFNg: -2.7

How did CC(C)C(=O)Nc1ccc(N2CCN(C(=O)c3ccccc3)CC2)c(Cl)c1 do in these assays?
Tgondii IFNg: -22.3

How did CCOC(=O)c1cnc(SC)nc1-c1ccc(OC)nc1 do in these assays?
Tgondii IFNg: 10.3

How did O=C(c1ccc(F)cc1)N1CCC2(CC1)Nc1ccc(Cl)cc1-n1cccc12 do in these assays?
Tgondii IFNg: 51.5

How did CCOC(=O)C1CCCN(Cc2cn3cc(F)ccc3n2)C1 (stereo unspecified) do in these assays?
Tgondii IFNg: 31.2

What do the screens show for `Cc1ccc(OCCN(C)Cc2nc(-c3cccc(Cl)c3)no2)cc1`?
Tgondii IFNg: 3.6

How did COc1ccc2c3c(n(C)c2c1)[C@@H](CO)N(C(=O)CC1CC1)CC31CN(Cc2ccncc2)C1 do in these assays?
Tgondii IFNg: -34.3

Results for COCCNC(=O)C[C@@H]1CC[C@@H]2[C@H](COc3ccc(NS(=O)(=O)c4ccc(Cl)cc4)cc3C(=O)N2C)O1 ?
Tgondii IFNg: 7.2

How did Cc1cccc(NC(=O)Cn2ccc3ccc(-c4nnc(C)o4)cc32)n1 do in these assays?
Tgondii IFNg: 66.1

Results for Cc1cc2nc(C(=O)N3CCCC4(CN(C)C(=O)O4)C3)cc(C)n2n1 (stereo unspecified) ?
Tgondii IFNg: 5.8

Results for O=C1CCC(=O)N[C@H](c2ccc(F)cc2)C/C=C\C[C@@H](c2ccc(F)cc2)N1 ?
Tgondii IFNg: -55.6

What do the screens show for `CN1CC2(CCCN(Cc3cc(=O)c4cc(Cl)ccc4[nH]3)C2)OC1=O` (stereo unspecified)?
Tgondii IFNg: -9.0

Results for CC(C)OC(=O)NC(Sc1ccccc1)(Sc1ccccc1)C(F)(F)F ?
Tgondii IFNg: -2.8

What do the screens show for `O=C(NC1CCCC1)C1CC(=O)N(CCc2c[nH]c3ccc(Cl)cc23)C1` (stereo unspecified)?
Tgondii IFNg: 324.5

Results for Cc1ccc2c(c1)C1(CC2)CCN(c2nncs2)CC1 ?
Tgondii IFNg: 18.6

What do the screens show for `CS(=O)(=O)N1CC=CC1C(=O)NCc1nc(-c2ccccc2Cl)no1` (stereo unspecified)?
Tgondii IFNg: 38.4

What do the screens show for `CC(=O)CSc1ncnc2c1cnn2-c1ccccc1`?
Tgondii IFNg: 129.8

Sorted by heavy-atom count (highest first): some entries from above
Results for COCCNC(=O)C[C@@H]1CC[C@@H]2[C@H](COc3ccc(NS(=O)(=O)c4ccc(Cl)cc4)cc3C(=O)N2C)O1 ?
Tgondii IFNg: 7.2

How did O=C(c1ccc(F)cc1)N1CCC2(CC1)Nc1ccc(Cl)cc1-n1cccc12 do in these assays?
Tgondii IFNg: 51.5

How did Cc1cccc(NC(=O)Cn2ccc3ccc(-c4nnc(C)o4)cc32)n1 do in these assays?
Tgondii IFNg: 66.1

How did CCOC(=O)c1cnc(SC)nc1-c1ccc(OC)nc1 do in these assays?
Tgondii IFNg: 10.3

(cont.)
What do the screens show for `CCCNC(=O)N(C)C[C@@H]1Oc2ncc(C#CC3CCCCC3)cc2C(=O)N([C@H](C)CO)C[C@@H]1C`?
Tgondii IFNg: -48.5

Results for CCc1ccc(NC(=O)NCC(c2cccnc2)c2cn(C)c3ccccc23)cc1 (stereo unspecified) ?
Tgondii IFNg: 258.8

Results for COc1ccc2c(c1)NC1(CCN(C(=O)C3CCCCC3)CC1)c1cccn1-2 ?
Tgondii IFNg: 34.0

Results for Cc1cc(N2CCCN(C(=O)CSc3ncccn3)CC2)ccn1 ?
Tgondii IFNg: -0.3

How did Cc1nc(NC(=O)NCc2cc3ccccc3s2)nn1C do in these assays?
Tgondii IFNg: -3.0

How did COc1ccc(S(=O)(=O)Nc2cncc(C(=O)Nc3ccc(Cl)cc3C)c2)cc1OC do in these assays?
Tgondii IFNg: 23.1

How did CCOCCCNC(=O)C1=C(C)C(=O)OC12CCN(S(=O)(=O)CC)CC2 do in these assays?
Tgondii IFNg: 35.4

What do the screens show for `Cc1ccc2[nH]cc(CCN3CC(C(=O)NCCc4ccc(F)cc4)CC3=O)c2c1` (stereo unspecified)?
Tgondii IFNg: 178.8

What do the screens show for `C/C=C/c1ccc(OCCCCN2CC(C)CC(C)C2)c(OC)c1` (stereo unspecified)?
Tgondii IFNg: -9.8

Results for O=C(CCC(=O)NC1CCCCCC1)NCc1cccc2[nH]ccc12 ?
Tgondii IFNg: 4.5

How did CCN1CCC2(CC1)OC(=O)C(C)=C2C(=O)Nc1ccc(F)cc1C do in these assays?
Tgondii IFNg: 203.1

What do the screens show for `O=S1(=O)CCN(Cc2ccc(NS(=O)(=O)c3ccc(Cl)cc3)cc2)CC1`?
Tgondii IFNg: -92.1*

What do the screens show for `CO[C@@H]1CN(C)C(=O)c2ccc(NC(C)=O)cc2OC[C@@H](C)N(Cc2cccc(F)c2)C[C@@H]1C`?
Tgondii IFNg: 258.7

Results for CCOC(=O)c1sc(NC(C)=O)nc1C ?
Tgondii IFNg: 25.6

How did CN(C)c1ncnc2c1CCN(C(=O)N1CCOCC1)CC2 do in these assays?
Tgondii IFNg: 43.3

What do the screens show for `Clc1cccc(Nc2nc3c(s2)CCCC3)c1`?
Tgondii IFNg: 249.7

How did Cc1cccc(Cl)c1NC(=O)Cn1ncc2c(N3CCN(c4ccccn4)CC3)ncnc21 do in these assays?
Tgondii IFNg: 229.9

Results for COc1cccc(-c2ccc(C3[C@@H]4CN(S(=O)(=O)c5cn(C)cn5)C[C@H]3N4)cc2)c1 (stereo partly specified) ?
Tgondii IFNg: -17.2&-16.5

How did CN1c2ccc(Br)cc2[C@@H]2[C@@H](CCN2C(=O)Nc2cccc(F)c2)[C@H]1CO do in these assays?
Tgondii IFNg: 5.5

Results for Cn1nc(-c2cccnc2)c2[nH]c(-c3ccccc3OC(F)F)nc21 ?
Tgondii IFNg: -53.9

How did COc1ccccc1NC(=O)N1CCC2(CC1)Nc1cc(C)ccc1-n1cccc12 do in these assays?
Tgondii IFNg: 263.5

How did CNC(=O)[C@H]1C[C@@H]2CN(CC3CCOCC3)C[C@@H]2N1C(C)=O do in these assays?
Tgondii IFNg: 2.0

What do the screens show for `CCC1(CC)NC(=O)N(CC(=O)Nc2cc(-c3csnn3)ccc2C)C1=O`?
Tgondii IFNg: 9.4

How did Cc1nc(-c2cccc(F)c2)sc1CCNC(=O)Cc1ccc(F)cc1 do in these assays?
Tgondii IFNg: -3.7

How did CCC(Nc1cccc(OC)c1)C(=O)N1CCC(O)(c2ccc(C)cn2)CC1 (stereo unspecified) do in these assays?
Tgondii IFNg: -46.3

Results for CCN1CCC2(CC1)OC(=O)C(C)=C2C(=O)Nc1cccc(F)c1 ?
Tgondii IFNg: 180.1

How did CCn1nc(C(C)C)cc1C(=O)Nc1ccc(CN2C(=O)NC(C)(C)C2=O)cc1 do in these assays?
Tgondii IFNg: -4.4

How did O=C(c1ccc(CO)cc1)N1CCCC(CCc2cccc(C(F)(F)F)c2)C1 (stereo unspecified) do in these assays?
Tgondii IFNg: -31.4

What do the screens show for `C[C@@H]1CN([C@H](C)CO)C(=O)c2c(c3ccccc3n2C)-c2ccccc2CO[C@H]1CN(C)S(=O)(=O)c1ccc([N+](=O)[O-])cc1`?
Tgondii IFNg: -68.3

What do the screens show for `O=C(Nc1ccccc1)N1C[C@@H]2N[C@H](C1)C2c1ccc(-c2ccccc2F)cc1` (stereo partly specified)?
Tgondii IFNg: -7.1&-66.8

What do the screens show for `COc1ccc(CN2CCC[C@@H](Cn3nnc(-c4cnccn4)n3)C2)cc1OC`?
Tgondii IFNg: -13.7

Results for CN1CCC2(CN(c3ncccn3)CC23CCN(CC2CCOCC2)CC3)C1=O (stereo unspecified) ?
Tgondii IFNg: -2.9

Results for Cc1ccc(NC(=O)C(=O)NCCc2sc(-c3ccc(Cl)cc3)nc2C)cc1C ?
Tgondii IFNg: 20.1

Results for CN(C)C(=O)c1noc2c1CN(C(=O)c1ccc(CC3CCCNC3)cc1)CC2 (stereo unspecified) ?
Tgondii IFNg: 6.6

How did CCc1cnc(N2[C@@H](C#N)[C@H](c3ccc(C4=CCCCC4)cc3)[C@@H]2CO)s1 do in these assays?
Tgondii IFNg: 2.7

How did Cc1cc(C)n(-c2cccc(C(=O)NCC(C)n3nc(C)c(C)c3C)c2)n1 (stereo unspecified) do in these assays?
Tgondii IFNg: -10.8

Results for Fc1ccccc1Cc1noc(CNCc2cn3cccnc3n2)n1 ?
Tgondii IFNg: 1.0

Results for Clc1cncc(Oc2ccc(-n3cccc3)cn2)c1 ?
Tgondii IFNg: -56.9

What do the screens show for `CCOC(=O)C1CCC(CNC(=O)N2CCC3(CC2)Nc2cc(F)ccc2-n2cccc23)CC1` (stereo unspecified)?
Tgondii IFNg: 77.4

What do the screens show for `CC(C)N(Cc1cccc(Cl)c1)Cc1cnn(C)c1`?
Tgondii IFNg: -22.0

What do the screens show for `CO[C@H]1CCN(C(=O)C2CC=CC2)[C@H]1Cc1ccncc1`?
Tgondii IFNg: -4.6

How did CN(C)CC(=O)N1CCCCC1CCc1ccccn1 (stereo unspecified) do in these assays?
Tgondii IFNg: 23.5

How did COc1ccc2c(c1)NC1(CCN(S(=O)(=O)c3c(C)noc3C)CC1)c1cccn1-2 do in these assays?
Tgondii IFNg: -3.4

What do the screens show for `CCN(CCCNc1nc(-c2ccc(OC)cc2)nc2ccccc12)c1cccc(C)c1`?
Tgondii IFNg: -24.7

What do the screens show for `Cc1ccc(C(=O)N2CCC3(CC2)CCN(c2cnn(C)c2)C3=O)cc1`?
Tgondii IFNg: 19.8

Results for COc1ccc(C2(C(=O)N3CCCC(O)(CN(C)C)C3)CCCC2)cc1 (stereo unspecified) ?
Tgondii IFNg: -10.9

What do the screens show for `c1ccc(C[C@H]2[C@H](N3CCOCC3)CCN2Cc2ccoc2)cc1`?
Tgondii IFNg: -0.9

Results for O=C(Cn1ncc2c(N3CCCC3)ncnc21)Nc1ccc(Oc2ccccc2)cc1 ?
Tgondii IFNg: -59.6

Results for CC1CCCN(Cc2nnnn2-c2ccc(Cl)c(Cl)c2)C1 (stereo unspecified) ?
Tgondii IFNg: 9.5

What do the screens show for `CCCNC(=S)NC1CC2CCCC(C1)N2Cc1ccc(C)cc1` (stereo unspecified)?
Tgondii IFNg: -65.0

How did N#Cc1ccc(Oc2cc(-c3ccccc3)nc(-c3ccc(Br)cc3)n2)cc1 do in these assays?
Tgondii IFNg: 75.5

Results for COc1ccc(C(=O)NCCc2csc(-c3ccc(C)cc3)n2)cc1OC ?
Tgondii IFNg: inactive

What do the screens show for `COCCN1CCOCC12CCN(C(=O)CC1CCCC1)CC2`?
Tgondii IFNg: -3.4

Results for Cn1nc(CC2CCN(C(=O)c3cccnn3)CC2)n(-c2ccccc2)c1=O ?
Tgondii IFNg: 19.7

What do the screens show for `CCOc1ccc(-c2nc(CN(c3ccccc3OC)S(=O)(=O)c3ccccc3)c(C)o2)cc1`?
Tgondii IFNg: -47.9

How did COc1cccc(NC(=O)Cn2ncc3c(N4CCOCC4)ncnc32)c1 do in these assays?
Tgondii IFNg: -40.1

What do the screens show for `C=CCN1Cc2ccccc2C2(CCN(C(=O)c3ccno3)CC2)C1`?
Tgondii IFNg: -5.2

What do the screens show for `CN(C)C(=O)COC[C@]12CCC[C@@H]1CN(Cc1cccs1)C2`?
Tgondii IFNg: -1.6

Results for c1coc(Cn2ccnc2-c2ccc(-c3ccn[nH]3)o2)c1 ?
Tgondii IFNg: 4.2

What do the screens show for `O=C(CCSc1ccc2c(c1)OCCO2)NCCN1CCOCC1`?
Tgondii IFNg: 0.4

By substructure: the compounds so far containing a thiophene ring, fused or not (two)
How did Cc1nc(NC(=O)NCc2cc3ccccc3s2)nn1C do in these assays?
Tgondii IFNg: -3.0

What do the screens show for `CN(C)C(=O)COC[C@]12CCC[C@@H]1CN(Cc1cccs1)C2`?
Tgondii IFNg: -1.6

Retrieved by structure from the entries so far (3):
Results for Cn1nc(CC2CCN(C(=O)c3cccnn3)CC2)n(-c2ccccc2)c1=O ?
Tgondii IFNg: 19.7

How did COc1ccc2c(c1)NC1(CCN(S(=O)(=O)c3c(C)noc3C)CC1)c1cccn1-2 do in these assays?
Tgondii IFNg: -3.4

What do the screens show for `CN(C)C(=O)COC[C@]12CCC[C@@H]1CN(Cc1cccs1)C2`?
Tgondii IFNg: -1.6

Later entries:
What do the screens show for `NS(=O)(=O)c1ccc(NC(=O)C2COc3ccccc3C2)cc1` (stereo unspecified)?
Tgondii IFNg: -29.4

Results for Cc1cc(C)n(-c2cccc(CN3CC4CCCC(C3)C4(O)c3cccnc3)c2)n1 (stereo unspecified) ?
Tgondii IFNg: -55.2

Results for Cc1cccc(CN2C[C@H]3[C@H](C(=O)N(C)C)CCS(=O)(=O)[C@H]3C2)c1 ?
Tgondii IFNg: -46.7

How did OC[C@H]1[C@@H](c2ccc(-c3cccnc3)cc2)[C@@H]2CN(Cc3ccccn3)CCCCN12 do in these assays?
Tgondii IFNg: -2.1

Results for Nc1nc(NC2CCCCNC2=O)n[nH]1 (stereo unspecified) ?
Tgondii IFNg: -4.2

Results for c1ccc(-n2cccc2CN(Cc2cccnc2)Cc2ccc3c(c2)OCO3)nc1 ?
Tgondii IFNg: -32.3

How did Cc1cc(C)n(Cc2c(C(=O)NCc3ccc(CN4CCOCC4)cc3)noc2C)n1 do in these assays?
Tgondii IFNg: -28.5

Results for COc1ncnc2c1CCN(C(=O)c1ccnnc1)CC2 ?
Tgondii IFNg: -5.6

These rows are one share of the data (hit frequency here may not be typical).
